# PABP FP inh: PABP-poly(A) binding inhibition | P11940 | PABP-poly(A) RNA binding, fluorescence polarization | inhibition, % at 35 µM | actives 1% (n = 290,000) | AID 2014;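 active = 50% or more with normal probe brightness, or confirmed in later tests; about a fifth of its hits are not listed in these tables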;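 also: calls also rest on retests at 20 µM and on dose response follow-up; controls were probe without protein and protein plus probe with vehicle; some compounds called inactive have numbers as strong as hits; many hits fall short of the cut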
# Target sequence (P11940 whole entry, looked up): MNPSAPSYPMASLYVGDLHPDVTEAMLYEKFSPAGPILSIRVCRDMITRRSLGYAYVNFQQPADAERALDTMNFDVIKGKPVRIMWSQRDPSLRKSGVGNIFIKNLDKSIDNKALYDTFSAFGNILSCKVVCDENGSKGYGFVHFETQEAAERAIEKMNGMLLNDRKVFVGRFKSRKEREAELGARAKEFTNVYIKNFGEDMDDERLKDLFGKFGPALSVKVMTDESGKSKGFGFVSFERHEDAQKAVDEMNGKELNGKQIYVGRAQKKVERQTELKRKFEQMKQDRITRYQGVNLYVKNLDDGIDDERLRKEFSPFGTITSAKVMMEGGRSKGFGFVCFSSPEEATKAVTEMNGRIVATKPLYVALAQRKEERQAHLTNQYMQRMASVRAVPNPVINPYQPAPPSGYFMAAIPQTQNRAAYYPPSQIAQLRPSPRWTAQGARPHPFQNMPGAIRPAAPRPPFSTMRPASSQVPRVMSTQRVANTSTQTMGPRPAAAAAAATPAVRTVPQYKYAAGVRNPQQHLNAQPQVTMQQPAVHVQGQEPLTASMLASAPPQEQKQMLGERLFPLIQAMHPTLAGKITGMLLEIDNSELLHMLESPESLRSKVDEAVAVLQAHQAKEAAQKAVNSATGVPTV
# eIF4H FP inh: inhibitors of RNA binding by human eIF4H | Q15056 | actives 0.94% (n = 290,000) | AID 2012 | eIF4H fluorescence polarization binding assay | inhibition, % at 35 µM;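 active = 50% or more with normal probe brightness, or confirmed in later tests; about a fifth of its hits are not listed in these tables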;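 also: calls also rest on retests at 20 µM and on dose response follow-up; 0% = protein and probe with vehicle and 100% = probe without protein; strong numbers were not always called active; many hits fall short of the cut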
# Rce1 inhib: inhibitors of yeast Ras-converting enzyme; Q03530; yeast membranes, quenched prenylated peptide cleavage fluorescence; calls only; actives 0.27% (n = 290,000); AID 2563;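 active = fall in fluorescence gain of 50% or more versus controls, with final raw signal at or below 3038400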;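 also: plate controls were neutral control wells for no effect and wells lacking membranes for full effect; tested at 10 µM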
# Target sequence (Q03530 whole entry, looked up): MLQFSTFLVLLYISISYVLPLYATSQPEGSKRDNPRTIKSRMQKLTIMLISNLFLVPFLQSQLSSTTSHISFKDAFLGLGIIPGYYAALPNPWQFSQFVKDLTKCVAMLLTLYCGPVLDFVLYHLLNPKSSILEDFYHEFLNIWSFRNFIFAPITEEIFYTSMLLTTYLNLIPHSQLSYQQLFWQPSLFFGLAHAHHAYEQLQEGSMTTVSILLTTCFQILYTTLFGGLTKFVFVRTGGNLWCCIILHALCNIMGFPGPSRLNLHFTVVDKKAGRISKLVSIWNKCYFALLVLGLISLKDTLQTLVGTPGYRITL
# CSC inhib: cancer stem cell inhibition; cancer stem cell-like cells viability, luminescence; inhibition, % at 7.5 µM; actives 1.1% (n = 300,000);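 active = mean at 75% or more and at least half the replicates too; tested in HMLE shEcad cells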;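 also: 0% = median of negative and 100% = median of positive control wells; the first replicate is given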
# MT1-MMP act inh: inhibitors of human MT1-MMP activation; GFP/RFP ratio change, % at 20 µM; P50281; HT1080 RFP-PRO-GFP cells, GFP/RFP ratio fluorescence, overnight; percent of plate control window, DMSO zero; AID 651647; actives 0.061% (n = 360,000);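 active = GFP/RFP ratio change of at least 30% with cell ATP level not reduced by more than half and red fluorescence within 50% of control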; also: strong numbers were not always called active
#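 Compound: 20 µM single dose, 1% DMSO / System: HT1080 RFP-PRO-GFP cells / Controls: DMSO and RFP-L50D-GFP cell wells / Read-out basis: GFP/RFP fluorescence ratio / Schedule: overnight compound exposure at 37 °C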
# HIV Env fusion: inhibitors of HIV Env-mediated cell fusion; inhibition, % at 12.3 µM; actives 1.1% (n = 360,000); HeLa-JRFL Env/CEM21 cell fusion, luciferase; AID 651610;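 active = mean replicate inhibition score of at least 50 and every replicate individually at or above 50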;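 also: 0% = plate neutral controls and 100% = maraviroc near 300 nM; one replicate is shown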
# UUG fidelity: modulators of start codon recognition fidelity in yeast | AID 602363 | activity score, % at 18.7 µM | actives 0.13% (n = 350,000) | S. cerevisiae UUG-firefly luciferase reporter, luminescence/redox ratio;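 active = replicate mean at a twofold rise or more, about +100% in these data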;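 also: firefly luciferase made from a UUG start codon reports start codon fidelity; reporter light over untreated wells divided by growth signal over untreated wells; some hits fall short of that in this replicate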
# MT1-MMP act inh RFP: also measured in MT1-MMP act inh; calls as there; RFP signal change, %; measured here: RFP expression control read;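 0 = vehicle wells; hits needed this value within 50% of zero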
# * hit, by the source's call; i = inactive; / = no result given.
no.	Structure	eIF4H FP inh	MT1-MMP act inh RFP	PABP FP inh	UUG fidelity	CSC inhib	HIV Env fusion	Rce1 inhib	MT1-MMP act inh
1	CC(C)(O)C(=O)N/N=C\c1ccc(OC/C=C/c2ccccc2)cc1	-9	0	-14	3	-5	-16	i	3
2	CC(=O)c1ccc(N2CCN(C(=O)c3ccc4c(c3)OCO4)CC2)cc1	-1	-1	4	-3	-9	/	i	-2
3	O=C(NCc1ccc2c(c1)OCO2)c1cc2c(s1)CSC2	7	10	37	-13	-2	61*	i	16
4	O=C(CCc1c[nH]c2ccccc12)N1CCN(S(=O)(=O)c2ccc(F)cc2)CC1	/	0	/	9	/	27	/	-2
5	CC(C(=O)N1CCCc2ccccc21)N1CCN(c2ccccn2)CC1 (stereo unspecified)	0	3	5	-22	14	-1	i	2
6	Cc1ccc(S(=O)(=O)N2CCC[C@H]2C(=O)NCc2ccccc2Cl)cc1	/	0	/	15	1	-18	/	-2
7	COc1ccc(C(=O)NCCCN2CCOCC2)cc1S(=O)(=O)N1CCCc2ccccc21	1	4	-9	-6	-14	4	i	2
8	COc1cc2c(cc1OC)CN(Cc1cc(=O)oc3c(C)c(C)ccc13)CC2	-4	3	7	/	14	-4	i	-4
9	CCc1nc(N2CCN(C(C)=O)CC2)c2c3c(sc2n1)CCCC3	-5	0	14	-4	19	18	i	1
10	Cn1c(=O)n(-c2ccccc2)c(=O)c2c3c(sc21)COC(C)(C)C3	-3	3	7	-6	-11	/	i	-3
11	Cc1oc(-c2cccc3ccccc23)nc1CN1CCC[C@H]1CO	-3	1	4	/	-11	9	i	-3
12	Cc1ccc2nc(NCc3ccc(F)cc3)c3nncn3c2c1	-8	-1	2	-14	-5	11	i	0
13	Cc1cc(C)n2c(SCC(=O)Nc3cc(C)on3)nnc2n1	-3	6	4	-13	3	-11	i	3
14	CCN1CCN(C(=O)C2CCN(S(=O)(=O)c3ccc(Br)cc3)CC2)CC1	1	0	-16	-20	-11	/	i	-1
15	CCN(CC)S(=O)(=O)c1ccc(C)c(NC(=S)NC2CCCCC2)c1	6	-4	-2	/	2	11	i	4
16	CC(C)NS(=O)(=O)c1ccc(OCC(=O)Nc2ccc3c(c2)OCO3)c(Cl)c1	-7	-3	-6	-15	-5	/	i	3
17	COc1ccc(CCNC(=S)NC(=O)c2ccccc2)cc1C	0	0	3	-24	1	0	i	-3
18	COc1cc(NC(=O)CSCc2ccc(Cl)cc2)c(C(=O)O)cc1OC	-6	1	-14	-3	-10	-44	i	0
19	COC(=O)CN1C(=S)N(C)C(=O)/C1=C/c1cccs1	3	5	-13	/	2	7	i	1
20	Nc1nc(COc2ccc3ccccc3c2)cs1	-5	4	2	-7	10	/	i	5
21	Cc1cccc(-n2cnc(C(=O)NNC(=S)Nc3ccccc3)c2)n1	14	2	7	/	-9	-2	i	-1
22	O=C(NC(Cc1ccccc1)C(=O)N1CCN(c2ccccn2)CC1)c1ccco1 (stereo unspecified)	-2	5	2	-17	6	-23	i	2
23	Cc1ccc(S(=O)(=O)NC(=O)Nc2nnc(C)s2)cc1	-14	1	-13	-5	-3	-70	i	1
24	COc1ccc(N2CCN(C3CCCN(C(=O)CN4CCCC4=O)C3)CC2)cc1 (stereo unspecified)	-4	3	2	-7	-14	11	i	0
25	CCOC(=O)c1sc(Nc2nc(OC)cc(OC)n2)nc1C	0	/	3	/	-15	-9	i	/

# Arranged by molecular weight (descending): part of the list above.
no.	Structure	eIF4H FP inh	MT1-MMP act inh RFP	PABP FP inh	UUG fidelity	CSC inhib	HIV Env fusion	Rce1 inhib	MT1-MMP act inh
18	COc1cc(NC(=O)CSCc2ccc(Cl)cc2)c(C(=O)O)cc1OC	-6	1	-14	-3	-10	-44	i	0
21	Cc1cccc(-n2cnc(C(=O)NNC(=S)Nc3ccccc3)c2)n1	14	2	7	/	-9	-2	i	-1
20	Nc1nc(COc2ccc3ccccc3c2)cs1	-5	4	2	-7	10	/	i	5

# A second format for part of the listing above:
7) COc1ccc(C(=O)NCCCN2CCOCC2)cc1S(=O)(=O)N1CCCc2ccccc21
  eIF4H FP inh = 1 | MT1-MMP act inh RFP = 4 | PABP FP inh = -9 | UUG fidelity = -6 | CSC inhib = -14 | HIV Env fusion = 4 | Rce1 inhib = i | MT1-MMP act inh = 2

10) Cn1c(=O)n(-c2ccccc2)c(=O)c2c3c(sc21)COC(C)(C)C3
  eIF4H FP inh = -3 | MT1-MMP act inh RFP = 3 | PABP FP inh = 7 | UUG fidelity = -6 | CSC inhib = -11 | HIV Env fusion = / | Rce1 inhib = i | MT1-MMP act inh = -3

5) CC(C(=O)N1CCCc2ccccc21)N1CCN(c2ccccn2)CC1 (stereo unspecified)
  eIF4H FP inh = 0 | MT1-MMP act inh RFP = 3 | PABP FP inh = 5 | UUG fidelity = -22 | CSC inhib = 14 | HIV Env fusion = -1 | Rce1 inhib = i | MT1-MMP act inh = 2

25) CCOC(=O)c1sc(Nc2nc(OC)cc(OC)n2)nc1C
  eIF4H FP inh = 0 | MT1-MMP act inh RFP = / | PABP FP inh = 3 | UUG fidelity = / | CSC inhib = -15 | HIV Env fusion = -9 | Rce1 inhib = i | MT1-MMP act inh = /

# Next part:
no.	Structure	eIF4H FP inh	MT1-MMP act inh RFP	PABP FP inh	UUG fidelity	CSC inhib	HIV Env fusion	Rce1 inhib	MT1-MMP act inh
26	COc1ccc(CC(N)c2csc(Nc3nccc(C(F)(F)F)n3)n2)cc1 (stereo unspecified)	/	2	/	-16	/	-24	/	2
27	CCCCCCNCC1OCc2ccccc2CO1	-4	1	-6	/	/	/	i	-4
28	O=C(O)c1[nH]c2ccccc2c1C(c1cccc(O)c1)c1c(C(=O)O)[nH]c2ccccc12	1	3	11	1	-21	11	i	3
29	c1ccc(CNc2nc(Oc3ccncc3)c3sccc3n2)cc1	/	7	/	-9	/	8	/	12
30	CCCCC(=NCCc1c(C)[nH]c2ccc(OC)cc12)C1=C(O)CC(c2ccccc2)CC1=O (stereo unspecified)	-7	-20	-10	/	49	-248	i	-11
31	CCN(CC)CCNc1oc(-c2ccccc2)nc1S(=O)(=O)c1ccccc1	/	-2	/	7	-3	/	/	1
32	COc1ccc(C(CNC(=O)CSc2ccccc2)N2CCOCC2)cc1 (stereo unspecified)	/	2	/	-5	/	-8	/	-1
33	COc1ccc(C(=O)NC(=S)N2CCN(c3ccc([N+](=O)[O-])cc3)CC2)cc1	0	-5	-16	/	6	13	i	7
34	CCOC1=C2CN(S(=O)(=O)c3ccc(C)cc3)[C@@H](c3cccs3)C[C@H]2[C@H]2C(=O)N(c3ccccc3)C(=O)[C@H]2C1	/	8	/	-18	/	-352	/	6
35	CCOC(=O)C1CCN(C(=O)CN(c2ccc3c(c2)OCCO3)S(=O)(=O)c2ccccc2)CC1	/	2	/	/	-6	-6	i	0
36	Cn1cccc1C(=O)NC(=O)COC(=O)CCNS(=O)(=O)c1cccc(C(F)(F)F)c1	/	-1	/	-3	-3	/	/	4
37	Cc1ccc(CNS(=O)(=O)c2ccc(C)s2)cc1	/	0	/	-15	3	4	i	-6
38	CCOc1ccc(/C(O)=C2/C(=O)C(=O)N(CCCn3ccnc3)C2c2cccs2)cc1Cl (stereo unspecified)	-4	2	4	-11	-19	-17	i	-2
39	COc1ccc(OCc2cc(C(=O)N3CCC(OC)CC3)no2)c2ccccc12	4	6	-3	6	12	/	i	1
40	COc1ccc(OC)c(NC(=O)CN2CCN(C(=O)c3ccco3)CC2)c1	0	-1	-8	4	-7	-81	i	1
41	COc1ccc(CCNC(=O)CCc2cn(C)c3ccccc23)c(OC)c1	-6	0	3	-7	-13	22	i	2
42	Cc1cc(=O)n2c3ccccc3n(CC(O)CN3CCN(Cc4ccccc4)CC3)c2c1C#N (stereo unspecified)	-4	2	-1	-6	-2	-31	i	-3
43	COc1ccc(S(=O)(=O)NNC(=O)c2ccc(-n3c(C)ccc3C)cc2)cc1	16	-1	1	-20	-8	2	/	2
44	COCCn1c(SCC(=O)NC(C)c2ccccc2)nc2ccccc21 (stereo unspecified)	-9	0	7	5	/	-16	i	0
45	NS(=O)(=O)c1ccc(Nc2nc(-c3cccnc3)cs2)cc1	-6	-12	-14	-16	/	27	i	-12
46	Cn1ccnc1SCC(=O)Nc1ccc(F)c([N+](=O)[O-])c1	4	6	2	/	-1	7	i	2
47	O=C(N/N=C/c1cccnc1)c1ccc([N+](=O)[O-])cc1Cl	-5	-1	-7	/	-5	-12	i	-2
48	C=CCn1c(SCn2nnc3ccccc3c2=O)nnc1-c1ccc(Cl)cc1	2	-2	-3	-12	11	-49	i	0
49	O=c1[nH]c2ccccc2nc1-c1ccccc1	2	3	-4	-20	0	-10	i	-2
50	COc1ccc(OC)c(NC(=O)c2c(NC(=O)CNCc3ccco3)sc3c2CCC3)c1	15	3	10	-11	-16	/	i	3

# The listing continues.
no.	Structure	eIF4H FP inh	MT1-MMP act inh RFP	PABP FP inh	UUG fidelity	CSC inhib	HIV Env fusion	Rce1 inhib	MT1-MMP act inh
51	Cc1ccc(NS(=O)(=O)N(C)C)cc1	-2	4	-12	-9	-2	/	i	1
52	Cc1cc(C)n2nc(CNS(=O)(=O)c3cccc([N+](=O)[O-])c3)nc2n1	-13	2	5	-10	-12	-3	i	0
53	CCn1c(C)c(C)c2cc(C(=O)N3CCCC3)ccc21	-9	6	4	-16	-2	1	i	4
54	Cn1c(=O)c2c(-c3ccccc3F)c3c(nc2n(C)c1=O)-c1ccccc1C3O (stereo unspecified)	5	6	7	/	-12	/	i	-1
55	Clc1ccc(OCCCNCc2ccccc2)c(Br)c1	0	4	5	-17	-2	2	i	1
56	COc1ccc(C2CC(=O)C3=C(C2)Nc2ccccc2NC3c2coc3ccccc3c2=O)cc1OC (stereo unspecified)	2	-5	0	/	6	/	/	5
57	Cc1ccc(S(=O)(=O)NCCN2CCOCC2)c(C)c1	0	0	2	-5	-19	-4	i	6
58	O=C(Cc1n[nH]c(=O)[nH]c1=O)N/N=C/c1c(O)ccc2ccccc12	18	5	18	/	3	22	i	0
59	O=C(NCCc1ccccn1)c1cc(-c2ccc(Cl)cc2)nc2ccccc12	6	-8	5	/	5	-2	i	-4
60	Cc1nn2cc(-c3ncc(C(F)(F)F)cc3Cl)cnc2c1Br	5	-4	1	-31	5	-91	i	-4
61	COc1ccc(C(C)=O)cc1COC(=O)CNC(=O)C1CCCCC1	/	5	/	-15	-11	7	/	-2
62	CCN(C(=O)COC(=O)c1c(C)nn(-c2ccccc2)c1C)C1CCS(=O)(=O)C1 (stereo unspecified)	-11	0	5	/	2	-3	i	-2
63	COC(=O)c1ccccc1NC(=O)c1c(Br)cnn1C	-8	4	-1	/	3	/	/	3
64	O=C1N=c2ccccc2=C1c1sc(=S)n(CC2CCCO2)c1O (stereo unspecified)	-2	3	0	/	/	/	i	5
65	Cc1cccn2c(=O)c3cc(C(=O)NC4CCS(=O)(=O)C4)n(Cc4ccccc4)c3nc12 (stereo unspecified)	-12	-7	-1	-3	-10	2	i	-2
66	CC(C)NC(=O)c1nc2c(nnn2Cc2cccc(Cl)c2)c(=O)[nH]1	6	0	12	10	-18	13	i	0
67	CCOc1ccc(S(=O)(=O)N2CN3CCN(C3)C2)cc1	-2	1	11	-2	-12	-40	i	-2
68	CCCOc1cc(C)c(S(=O)(=O)N2CCOCC2)cc1C	-1	/	-7	/	2	/	i	/
69	COc1cc(OC)c(NC(=O)CS(=O)(=O)Cc2nc(-c3ccc(C)cc3)oc2C)cc1Cl	1	-1	-3	11	-4	/	i	1
70	CCNC(=O)NC(=O)C(C)OC(=O)c1oc2ccccc2c1CSC1CCCCC1 (stereo unspecified)	-11	-6	2	2	18	/	i	-9

# Screening results deposited in PubChem by several laboratories.
